Bioassay records as filed in PubChem.
StopGo RLuc: Primary qHTS Assay for Foot and Mouth Disease Virus Antivirals against NCGC Sytravon and CBC Compound Libraries: Renilla Luciferase Signal. HEK cells with a luciferase reporter of 2A StopGo recoding. Potency, µM (doses to about 57.5 µM), for inactives: at the top dose signal change, negative = less light. 0.32% of 120,000 active; active means well fitted falling curve with a large enough effect; inconclusive means small, poorly fitted or top-dose-only effect; inactive means no such curve, though single readings can be large or run the other way; note: nearly all actives have a fitted effect of over 55% in size; overnight with compound
StopGo FLuc: Primary qHTS Assay for Foot and Mouth Disease Virus Antivirals against NCGC Sytravon and CBC Compound Libraries: Firefly Luciferase Signal; 0.23% of 120,000 active; HEK cells with a luciferase reporter of 2A StopGo recoding; AID 1745856, 2022; Potency, µM (titrated, usually from 57.5 µM), for inactives: top-dose signal change, negative = less light; active = well fitted falling curve with a large enough effect; inconclusive = small, poorly fitted or top-dose-only effect; inactive = no such curve, though single readings can be large or run the other way; note: nearly all actives have a fitted effect of over 60% in size; overnight with compound
The depositor's hits bear a star; ? = inconclusive; & = joins results of further samples; [ ] = another dose, or the depositor's remark. % is set by controls: 0 for no effect and ±100 for the full control effect; potency is the fitted concentration of half-maximal effect. Not all compounds are listed (hit frequency here may not be typical).

SMILES	StopGo RLuc	StopGo FLuc
CC(=O)C1=C(O)C(=O)NC1c1ccc(F)cc1 (stereo not given)	9.4%	11.4%
O=C(Nc1ccc(OCc2ccccc2)cc1)C1CCN(S(=O)(=O)Cc2cccc(Cl)c2)CC1	-1.9%	0.3%
CC1CCCCN1CC(=O)NCCc1c[nH]c2ccccc12 (stereo not given)	-9.4%	-7.2%
Cc1ccc(-c2n[nH]c(=O)c3ccccc23)cc1S(=O)(=O)Nc1ccccc1	-1.5%	?
Cc1ccc(NC(=O)CN2C(=O)COc3ccc(S(=O)(=O)NC4CCCC4)cc32)c(Cl)c1	180.2%[activator]	-14.6%
Cc1cc(C)cc(-n2c(=O)[nH]c3ccccc3c2=O)c1	1.7%	-5.8%
N#Cc1ccccc1CN1CCc2cc(S(=O)(=O)N3CCOCC3)ccc21	?	?
CCOc1ccc2c(-c3cc4cccc(OCC)c4oc3=O)cc(=O)oc2c1	8.6%	-3.4%
FC(F)n1c(CSc2nnc3c(Cl)cc(C(F)(F)F)cn23)nc2ccccc21	13.4%	12.6%
CCn1c(=O)c(=O)[nH]c2cc(C(=O)N3CCCCCC3)ccc21	6.2%	9.8%
C=CCNC(=O)c1ccccc1NC(=O)/C=C/c1cccc2ccccc12	14.5%	0.0%
COc1cccc(C(=O)OCC(=O)N2c3ccccc3Sc3ccccc32)c1OC	-18.1%	-7.1%
CCc1ccc2c(c1)c(=O)c(S(=O)(=O)c1ccccc1)cn2CC(=O)Nc1ccc(OC)cc1	27.7%	-6.5%
Cc1ccc(S(=O)(=O)C(C)C(=O)c2ccc(Br)cc2)cc1 (stereo not given)	0.0%	11.6%
N#Cc1cnc2ccccc2c1Nc1cccc(C(F)(F)F)c1	?	?
Cc1cc(C(=O)OCC(=O)c2cc(C)n(C)c2C)c2ccccc2n1	16.2%	108.8%[activator]
CCOC(=O)Cn1c(=O)n(-c2ccccc2OC)c2nc(-c3ccccc3)nc(C(N)=O)c21	24.0%	28.9%
Cc1ccc(C)c(OCCOCCn2c(-c3ccc(Br)cc3)nc3ccccc3c2=O)c1C	-3.2%	-0.6%
COc1ccc(OCC(=O)Nc2ccc3oc(C)nc3c2)cc1	6.7%	0.0%
Cn1c(=O)c2c(-c3ccccc3)n3c(c2n(C)c1=O)C(c1coc2ccccc2c1=O)OCC3(C)C (stereo not given)	-10.7%	13.8%
Cc1ccc(C(C)C)c(OC(=O)c2ccc(C#N)cc2)c1	-6.8%	1.6%
CCCCC(CC)CNC(=O)c1nccnc1N (stereo not given)	-2.6%	4.4%
COc1cccc(N2CC(NC(=O)c3ccco3)CC2=O)c1 (stereo not given)	-8.7%&-9.6%	-9.7%&16.0%
Cc1ccc(-n2cc(-c3ccccc3)nc2S(=O)(=O)CC(=O)Nc2ccc(F)cc2)cc1	85.9%[activator]	129.2%[activator]
Cc1ccc2oc(C(=O)Nc3ccc(S(=O)(=O)Nc4onc(C)c4C)cc3)cc(=O)c2c1	-13.7%&-11.7%	0.0%&-12.8%
The list continues.
SMILES	StopGo RLuc	StopGo FLuc
CC(=O)Nc1c(SC(F)(F)F)cc(SC(F)(F)F)cc1SC(F)(F)F	-8.9%	-7.9%
O=C(CSc1nnc(-c2ccc3c(c2)OCO3)o1)Nc1ccc2c(c1)OC1(CCCC1)O2	-14.9%	59.0%[activator]
CC1=C(C(=O)Nc2ccc(C)cc2C)C(c2ccc(O)cc2)n2nnnc2N1 (stereo not given)	-24.1%	-15.4%
Cc1ccc(N(C(=O)C23CC4CC(CC(C4)C2)C3)C2C=CS(=O)(=O)C2)cc1 (stereo not given)	-9.5%	-9.8%
Cc1cc(NC(=O)COC(=O)c2ccc3c(c2)NC(=O)C(C)S3)no1 (stereo not given)	3.7%	21.8%
COC(=O)C1=C(C)N(C)C(=O)N(C)C1c1ccccc1F (stereo not given)	3.8%	4.6%
COc1cc(C)c(NC(=O)CC2CC3CCC2C3)cc1OC (stereo not given)	-3.3%	30.5%
CCc1nnc(NC(=O)c2cc(=O)c3ccccc3o2)s1	1.2%	69.1%[activator]
CC(C)c1nc(NCCCN(C)C)c(C#N)c2c1CCCC2	-15.3%	-19.6%
COc1ccc2c(C)c(CC(=O)Nc3ccc(Cn4cncn4)cc3)c(=O)oc2c1OC	-2.5%	0.1%
N#Cc1cc2c(=O)n3ccccc3nc2n(-c2nnc(SCc3ccccc3Cl)s2)c1=O	-13.1%	-13.2%
CC(C)c1ccc(-c2nonc2NC(=O)c2cc(=O)c3cc(Br)ccc3o2)cc1	-0.4%	-4.6%
CCc1c(C)sc(NC(=O)C2CCCCC2)c1C#N	7.0%	126.8%[activator]
Fc1ccc(C2=NC(C(F)(F)F)(C(F)(F)F)N=C3C=CC=CN32)cc1	-0.2%	-9.7%
CN(Cc1ccccc1N1CCCC1)C(=O)c1ccc(S(=O)(=O)N2CCCC2)cc1	26.3%	-6.3%
CCOC(=O)C1CCN(C(=O)Cn2ncc3c4ccccc4n(Cc4ccccc4)c3c2=O)CC1	-10.6%	-19.9%
CCOC(=O)C(NC(=O)COc1ccc(Oc2ccccc2)cc1)C(=O)OCC	8.9%	6.0%
Cc1cc(O)c(C(c2ccc(Cl)cc2)N2CCN(c3ccccc3)CC2)c(=O)n1Cc1ccco1 (stereo not given)	9.5%	-22.0%
CCCCN(CC)C(=O)c1nn(-c2ccc(OC)cc2)c(=O)c2c1c1ccccc1n2C	104.2%[activator]	-2.8%
CCOC(=O)C1C(=O)CC(=O)C(C(=O)OCC)C1c1ccccc1 (stereo not given)	16.3%	-2.0%
COc1cccc(CNC(=O)CCc2c(C)nc3c4c(C)cc(C)nc4nn3c2C)c1	-8.2%	23.4%
Cc1sc(NC(=O)c2ccco2)nc1-c1ccc2c(c1)N(C)C(=O)CO2	-0.9%	4.0%
CCOC(=O)c1ccc(Oc2coc3cc(OC(=O)c4cccs4)ccc3c2=O)cc1	-12.7%	-3.3%
CCCNC(=O)COc1ncnc2c(Cl)cc(Cl)cc12	-14.4%	-6.0%
CCCNC(=O)C1CCCN1S(=O)(=O)c1ccc(Br)s1 (stereo not given)	5.0%	-1.7%

Look-ups from the entries so far:
Reading for CCOC(=O)C(NC(=O)COc1ccc(Oc2ccccc2)cc1)C(=O)OCC in StopGo FLuc: 6.0%
Reading for CCCNC(=O)C1CCCN1S(=O)(=O)c1ccc(Br)s1 (stereo not given) in StopGo RLuc: 5.0%

Going on with the list.
SMILES	StopGo RLuc	StopGo FLuc
CC(C)C(NC(=O)c1ccc([N+](=O)[O-])cc1)C(C)C	-0.3%	-1.7%
CC(=O)Nc1ccc(S(=O)(=O)N2CCN(c3ccc(C)c(C)c3)CC2)cc1	9.5%	1.2%
COc1ccc(/C=C/C(=O)Nc2sc3c(c2C(N)=O)CCC(C)C3)cc1OC (stereo not given)	51.6%[activator]	44.1%[activator]
CC(=O)/C=C/C=C1/C2CCC(C2)C1(C)C (stereo not given)	-6.2%	-5.9%[11.5 µM]
CCNC(=S)NNC(=O)/C=C/c1ccccc1	-5.3%[1.06 µM]	0.0%
CSc1nc2sc3c(c2c(=O)n1-c1ccccc1C)CCCC3	-12.7%	-12.8%
C#CCN(CC(=O)NC(N)=O)Cc1ccc(C)cc1	15.4%	0.0%
COc1cc(NS(=O)(=O)c2cc3[nH]c(=O)[nH]c3cc2C)cc(OC)c1OC	-0.5%	-13.8%
COc1ccc(NC(=O)c2ccc3c(c2)CCCC3)cc1	5.0%	191.1%[activator]
COc1ccc(CNC(=O)c2ccc3c(c2)N(Cc2ccccc2F)C(=O)c2ccccc2S3=O)cc1 (stereo not given)	11.6%	-14.4%
CCOC(=O)c1c(C)[nH]c(CCC(=O)Nc2cc(Cl)ccc2OC)c1C	4.9%	-10.8%
Cc1nn(C)c2c1c(-c1ccccc1)cc(=O)n2Cc1ccc(Cl)cc1	-20.0%	-20.4%
C#CC1(O)CC[C@H]2[C@@H]3CCC4=CCCC[C@@H]4[C@H]3CC[C@@]21C (stereo not given in full)	-3.7%	-12.6%[11.5 µM]
CCOC(=O)c1ccc(NC(=O)CSc2nccn2Cc2ccccc2OC)cc1	-27.6%	-27.3%
CC(C)Cn1c(=O)c2ccccc2n2c(CCC(=O)N3CCN(c4ccccc4)CC3)nnc12	42.1%[activator]	30.1%[activator]
Cc1cc(C)cc(-c2nnc(SCc3nc4ccccc4o3)o2)c1	-9.6%	21.8%
Cn1c(=O)c2c(ncn2CCNC2=NCCCC2)n(C)c1=O	-4.0%	-3.4%
COc1ccc(C(=O)Nc2ccc3c(c2)N(C)C(=O)c2ccccc2S3)cc1OC	-7.7%	?
CCOc1ccc(Nc2oc(-c3ccc(COc4ccc(OC)cc4)o3)nc2C#N)cc1	-14.3%	3.4%
CCC(C)(C#N)NC(=O)c1ccc2c(c1)CCC2 (stereo not given)	-10.8%	17.5%
CCOC(=O)c1c(C)oc2ccc(OCC(=O)OC)cc12	6.0%	9.4%
Cc1oc(-c2ccccc2Cl)nc1CSc1nncn2c1cc1occc12	?	4.6%
CCOC(=O)CSc1nc2c(c(=O)[nH]c(=O)n2C)n1Cc1ccc(Cl)cc1	1.1%	-1.2%
Cc1cc(C(=O)COc2ncnc3ccccc23)c(C)n1C(C)C	5.4%	167.4%[activator]
O=C(NC1CCCC1)c1ccc(CSc2nc3cccnc3n2Cc2ccc(F)cc2)cc1	1.2%	-8.8%

In the list so far, these have two or more sulfur atoms:
SMILES	StopGo RLuc	StopGo FLuc
CC(=O)Nc1c(SC(F)(F)F)cc(SC(F)(F)F)cc1SC(F)(F)F	-8.9%	-7.9%
N#Cc1cc2c(=O)n3ccccc3nc2n(-c2nnc(SCc3ccccc3Cl)s2)c1=O	-13.1%	-13.2%
CCCNC(=O)C1CCCN1S(=O)(=O)c1ccc(Br)s1 (stereo not given)	5.0%	-1.7%
CSc1nc2sc3c(c2c(=O)n1-c1ccccc1C)CCCC3	-12.7%	-12.8%

4 entries from above in a different format.
molecule | StopGo RLuc | StopGo FLuc
C#CCN(CC(=O)NC(N)=O)Cc1ccc(C)cc1 | 15.4% | 0.0%
COc1cc(NS(=O)(=O)c2cc3[nH]c(=O)[nH]c3cc2C)cc(OC)c1OC | -0.5% | -13.8%
COc1ccc(NC(=O)c2ccc3c(c2)CCCC3)cc1 | 5.0% | 191.1%[activator]
COc1ccc(CNC(=O)c2ccc3c(c2)N(Cc2ccccc2F)C(=O)c2ccccc2S3=O)cc1 (stereo not given) | 11.6% | -14.4%

Other records.
SMILES	StopGo RLuc	StopGo FLuc
CNc1c(NC(=O)NCC(C)C)c(=O)oc2ccccc12	-0.1%	28.0%
Cc1c(Cl)cccc1S(=O)(=O)Nc1ccc2sc(NC(=O)c3ccccc3)nc2c1	?	-37.6%
Clc1cccc(N2CCN(Cc3nnc(-c4ccc(Br)s4)o3)CC2)c1	-1.4%	0.0%
O=C(NC12CC3CC(CC(C3)C1)C2)c1cccc(F)c1	14.5%	-1.8%
CCOC(=O)C1=C(C)N(c2ccc3c(c2)OCO3)C(=O)NC1c1cccc(F)c1 (stereo not given)	10.2%	23.1%
Cc1ccccc1NC(=O)CSC1=C(C#N)C(c2ccccc2C)C2=C(CCCC2=O)N1 (stereo not given)	-0.9%	-6.4%
COc1cc(NC(=O)CCn2nc(C)c(S(=O)(=O)N3CCCCC3)c2C)cc(OC)c1OC	-4.9%	-10.2%
CCOC(=O)c1cc(NC(=O)C2CCC2)cc(C(=O)OCC)c1	19.6%	11.2%
Cc1c(-c2ccccc2)c(=O)oc2cc(OC(=O)C3CC3)ccc12	51.7%[activator]	80.9%[activator]
COc1ccc2cc(CN(C)C(=O)CNC(=O)c3ccc(Cl)c(Cl)c3)ccc2c1	?	?
Cc1cc(NCc2nc(-c3ccsc3)no2)ccc1-n1cnnn1	3.8%	18.6%
O=C(Nc1ccccn1)c1cnc2ccccc2n1	11.6%	148.5%[activator]
C[C@@H]1C[C@@H]2O[C@H]2CCCCC(=O)Cc2cc(O)cc(O)c2C(=O)O1	?	?
COc1ccc(Br)cc1CNC(=O)c1ccc2nc(C(C)C)oc2c1	6.3%	19.7%
N#CC1=C(N)OC2=C(C(=O)CC(c3ccccc3)C2)C1c1ccc(Cl)cc1Cl (stereo not given)	?	?
COc1ccc2[nH]cc(CCNC(=O)Nc3ccccc3C)c2c1	11.9%	15.1%
CC(C)c1ccc(NC(=O)NC(=O)C(F)(F)F)cc1	18.9%	20.5%
Cc1nc2ccc(NC(=O)c3ccc4c(c3)NC(=O)CS4)cc2s1	?	60.3%[activator]
COc1ccc(/C=C/C(=O)Nc2sc3c(c2C(N)=O)CCCC3)cc1	8.1%	14.0%
CCCNC(=O)CCSc1nc(-c2ccc3c(c2)OCO3)cc(C(F)(F)F)n1	3.9%	1.8%
COc1ccc(CNC(=O)c2ccc(C3Nc4ccccc4S(=O)(=O)N3)cc2)c(OC)c1 (stereo not given)	0.0%	0.0%
Cc1cccc(Oc2coc3cc(O)ccc3c2=O)c1	31.1%[activator]	110.7%[activator]
CC(=O)c1sc(NC(=O)c2c(-c3ccccc3)c(-c3ccccc3)nn(C)c2=O)nc1C	67.4%[activator]	-12.3%
CCCN1CCCc2cc(CN(CCCN3CCOCC3)C(=O)Nc3ccc(CC)cc3)ccc21	-10.5%	5.0%
O=C(C1CCCN(S(=O)(=O)c2ccc(Br)s2)C1)N1CCN(c2ccccc2)CC1 (stereo not given)	?	-11.6%
Cc1ccc(C(=O)Nc2ccc(Cl)c(C(F)(F)F)c2)cc1Cl	22.2%	100.1%[activator]
Cc1c(C(=O)NCc2ccc(F)cc2)oc2ccc(S(=O)(=O)N3CCCCC3)cc12	-11.7%	?
Cc1ccc(CNC(=O)CN2C(=O)CCc3cc(S(=O)(=O)N4CCCCC4)ccc32)cc1	56.2%[activator]	37.3%[activator]
CC(C)(C)C(=O)NCCCNC(=O)C(C)(C)C	6.5%	-5.3%
